Compound activity (PubChem BioAssay)
CDC25B-CDK2 inh = primary biochemical HTRF screen for blockers of M-phase inducer phosphatase 2 binding to CDK2/cyclin A; P30305+P24941; HTRF CDC25B-CDK2/CyclinA binding, anti-His/anti-Flag; stronger effect = higher value; z-score (concentration not given with the values); 0.72% of 94,000 active;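 note: score is relative to mean and SD of negative controls; strong numbers were not always called active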
HIV TAR-Tat = TAR RNA-Tat peptide displacers, HIV-1, primary screen, biochemical, FRET, FAM/TAMRA-labeled Tat | HIV-1 TAR RNA, Tat peptide displacement FRET; stronger effect = higher value | z-score (no concentration beside the values) | 0.6% of 100,000 active | AID 1259389, 2018;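 note: score is relative to mean and SD of negative controls; some compounds called inactive have numbers as strong as hits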
Starred values were filed as active, the others as inactive; . = no result given.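 Rule for the calls: active = z-score from 3 up in half or more of its runs; inactive = the rest.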 Outcome played no part in choosing rows (roughly 0.87% active in at least one column).

compound | CDC25B-CDK2 inh | HIV TAR-Tat
CCOCCOC(=O)C1=C(C)NC2=C(C(=O)CC(c3ccc(Cl)cc3)C2)C1c1ccccc1F (centres undefined) | -1.4 | -0.04
CC(=O)N1CCN(c2oc(/C=C/c3ccc(F)cc3)nc2C#N)CC1 | -1.1 | -1.5
CCOc1ccc2c(c1)c(C(C)=O)c(C)n2-c1ccc(OC)cc1 | -0.21 | .
O=C1c2cccnc2C(=O)N1Cc1ccc(S(=O)(=O)Nc2cccc3c2CCCC3)s1 | . | 0.18
Cc1ccccc1CN1C(=O)C(O)(CC(=O)c2cccs2)c2cc(Cl)ccc21 (centres undefined) | -1.7 | 0.8
COCCc1nn2c(=O)cc(COC(=O)c3ccc(C(C)(C)C)cc3)nc2s1 | . | -0.69
CN(Cc1ccccc1)C(=O)C1=CC(c2cccs2)=NS(=O)(=O)N1C | -1 | 3.6
CC1CC(C)CN(CCCNc2ncnc3onc(-c4ccc(F)cc4)c23)C1 (centres undefined) | . | -0.68
OC1c2ccccc2-c2ccccc2C1O (centres undefined) | 0.38 | .
COC(=O)C1=C(C)NC2=C(C(=O)CC(c3ccccc3)C2)C1c1ccccn1 (centres undefined) | -0.21 | 1.5
CCc1ccc(S(=O)(=O)Nc2c(-n3cnnc3)n[nH]c2C)cc1 | -4.2 | 0.86
CCCN(CCC)C(=O)C1CCN(c2ncnc3c2nc2n3CCCCC2)CC1 | . | 2.8

The list goes on, starting with the last two of the part before.
compound | CDC25B-CDK2 inh | HIV TAR-Tat
CCc1ccc(S(=O)(=O)Nc2c(-n3cnnc3)n[nH]c2C)cc1 | -4.2 | 0.86
CCCN(CCC)C(=O)C1CCN(c2ncnc3c2nc2n3CCCCC2)CC1 | . | 2.8
CCCN1C(=O)c2[nH]nc(-c3ccccc3O)c2C1c1ccc(CC)cc1 (centres undefined) | -0.85 | 2.7
COc1ccc(-c2nc3c(s2)CN(S(=O)(=O)c2cccc4nsnc24)CC3)cc1 | . | -0.02
COc1ccc(C2SCC(=O)N2c2c(C)n(C)n(-c3ccccc3)c2=O)c(OC)c1 (centres undefined) | 0.05 | 2.4
Cc1nc(N2CCC(C(=O)O)CC2)c2c3c(sc2n1)CCCC3 | . | 0.87
CC1=NN(C(=O)c2cccc(C)c2)C(O)(C(F)(F)F)C1 (centres undefined) | -2.5 | .
COc1ccc(-c2noc(-c3nnn(-c4cc(Cl)ccc4C)c3C)n2)cc1 | . | -1.7
Cc1nnc(N2CCN(C(=O)Nc3ccccc3F)CC2)c2nn(-c3ccccc3)c(C)c12 | -0.84 | -3.4
O=C1CC(c2cccc(F)c2F)C2=C(CC(c3ccc(F)cc3)CC2=O)N1 (centres undefined) | 1.2 | 0.38
CCCCNc1nc2c(S(=O)(=O)c3ccccc3)nnn2c2ccsc12 | . | -0.22
Cc1cc(C)cc(NC(=O)c2cnc3scc(C)n3c2=O)c1 | -1.9 | .
Cc1nnsc1C(=O)Oc1ccc(Cl)cc1 | -1 | 1.4
CCOc1nc(C)ccc1-c1noc(-c2ccc(OC)c(OC)c2)n1 | 0.33 | 0.58
Cn1ccnc1S/C(=C/C=C(C#N)C#N)c1ccc(Cl)cc1 | -0.85 | .
O=C(NCc1cccs1)C1CCCN(c2nnc(-n3cccc3)s2)C1 (centres undefined) | . | 1.3
Cc1nn(C)c(C)c1S(=O)(=O)N(CC(=O)N1CCCC1)c1ccc(C(C)C)cc1 | -0.89 | .
NC(N)=NCCC[C@@H](NC(=O)[C@@H](N)Cc1ccc(O)cc1)C(=O)O | . | 0.36
CSc1ccccc1NC(=O)c1noc2c1CC(C)CC2 (centres undefined) | . | 1.6
O=C(Cn1cnc2c(nnn2-c2cccc(Cl)c2)c1=O)N1CCc2ccccc21 | -0.4 | 0.66
CCOC(=O)CSc1nnc(-c2cccs2)n1N | 1.3 | .
Cn1c(C(=O)Nc2ccccc2Br)c(N2CCCC2=O)c2cc(F)ccc21 | . | 1
CNC(=O)Nc1cccc2cccnc12 | 0.5 | .
CN(c1nnc(NC(=O)NC2CCCC2)s1)C1CCCCC1 | -1.7 | 1.6
Cc1cn2c(=O)cc(COc3ccccc3Cl)nc2s1 | -1.7 | 3
COC(=O)C1C(=O)C2=C(CC1C)NC(C)=C(C(=O)OC1CCCC1)C2c1coc2ccccc2c1=O (centres undefined) | -1.1 | -0.51

3 entries from above, arranged by number of heavy atoms, lowest first.
compound | CDC25B-CDK2 inh | HIV TAR-Tat
NC(N)=NCCC[C@@H](NC(=O)[C@@H](N)Cc1ccc(O)cc1)C(=O)O | . | 0.36
O=C(NCc1cccs1)C1CCCN(c2nnc(-n3cccc3)s2)C1 (centres undefined) | . | 1.3
COC(=O)C1C(=O)C2=C(CC1C)NC(C)=C(C(=O)OC1CCCC1)C2c1coc2ccccc2c1=O (centres undefined) | -1.1 | -0.51

A different layout for some results above:
Cn1ccnc1S/C(=C/C=C(C#N)C#N)c1ccc(Cl)cc1
  CDC25B-CDK2 inh = -0.85; HIV TAR-Tat = .

O=C(NCc1cccs1)C1CCCN(c2nnc(-n3cccc3)s2)C1 (centres undefined)
  CDC25B-CDK2 inh = .; HIV TAR-Tat = 1.3

Cc1nn(C)c(C)c1S(=O)(=O)N(CC(=O)N1CCCC1)c1ccc(C(C)C)cc1
  CDC25B-CDK2 inh = -0.89; HIV TAR-Tat = .

NC(N)=NCCC[C@@H](NC(=O)[C@@H](N)Cc1ccc(O)cc1)C(=O)O
  CDC25B-CDK2 inh = .; HIV TAR-Tat = 0.36

Next section
compound | CDC25B-CDK2 inh | HIV TAR-Tat
O=C1c2cccnc2C(Nc2ccccc2Br)N1Cc1ccco1 (centres undefined) | -0.88 | 1
O=C(O)C1CCCN(S(=O)(=O)c2ccc(Cl)s2)C1 (centres undefined) | -0.97 | .
CCOC(=O)CCCN1C(=O)c2cccc3cccc(c23)C1=O | 0.21 | 0.99
Cc1cc2nc(COC(=O)c3ccc(F)cc3)cc(=O)n2o1 | . | -0.37
Cc1cc2c(c(=O)n1CC1CCCO1)C(c1ccccc1)C(C#N)=C(N)O2 (centres undefined) | 0.23 | .
COc1cc(OC)cc(-c2cc3cnc(N)nc3nc2NC(=O)NC(C)(C)C)c1 | -0.03 | .
c1ccc(-c2cc(NCCN3CCOCC3)n3c(n2)nc2ccccc23)cc1 | -1.4 | -0.85
COc1ccc(-c2ccc(C#N)c(SCc3ccncc3)n2)cc1 | -3.8 | -1.3
Cc1cc(C)c(C)c(S(=O)(=O)Nc2c(-n3cnnc3)n[nH]c2C)c1 | -2.1 | 2.5
COCC(C)NC(=O)c1cc(C2CC2)on1 (centres undefined) | -1.6 | -0.07
Cc1ccc(C)c(OCC(O)Cn2cnc3ccccc32)c1 (centres undefined) | 0.32 | 1.2
CCOC(=O)c1c(NC(=O)c2cc(=O)c3c(C)cc(C)cc3o2)sc2c1CCC2 | -1.6 | -0.75
O=C(CSc1nc2c(c(=O)n1-c1ccc(Cl)cc1)SCC2)Nc1ccc2c(c1)OCCO2 | 0.15 | .
Cc1noc2ncnc(NC3CCCCC3C)c12 (centres undefined) | . | 0.56
CCOc1cc(C2C3=C(CCCC3=O)NC3=C2C(=O)CCC3)cc(Cl)c1OC | 1.4 | -0.05
COc1ccc(C(=O)c2ccc(O)cc2)c(O)c1O | . | -1.3
CC1=C(C(=O)OCCOC(C)C)C2(O)C(=O)c3ccccc3C2(O)N1 (centres undefined) | -2 | .
CCCS(=O)(=O)NCc1cn2c(C)csc2n1 | -1.2 | 0.19
COCCCNc1ncnc2c1oc1nc3c(cc12)COC(C)(C)C3 | . | -1.4
Cc1cccc(C2N3CC4(C)CN2CC(C)(C3)C4)c1 (centres undefined) | -2.7 | 0.61
CC1CCC(NC(=O)C2(C)Cn3c(cc4sccc43)C(=O)N2CC2CCCO2)CC1 (centres undefined) | 0.66 | 2
COCCNc1oc(-c2ccc(OC)cc2)nc1C#N | -0.17 | 1.9
O=C(NCC1COc2ccccc2O1)C1CCCN(S(=O)(=O)c2cnc[nH]2)C1 (centres undefined) | -0.61 | .
O=c1ccc(-c2ccc(S(=O)(=O)Nc3ccc(Cl)cc3F)o2)n[nH]1 | . | 2.1
CCOC(=O)C(=CNNC(=O)c1ccccc1-n1cccc1)C(=O)OCC | -0.81 | .
CCCCN(CCNc1ncnc2onc(-c3cccc(Cl)c3)c12)Cc1ccco1 | . | 0.72
COc1ccc(S(=O)(=O)N2CCC(C)CC2)cc1OC | -1.2 | 1.1
CCOC(=O)C1C(=O)NCC2CCCC21 (centres undefined) | -1.5 | 1
O=C(NCC1CCCO1)c1cc2ccccc2c(=O)s1 (centres undefined) | -0.17 | -0.04
CC(=O)Nc1nc2c(s1)C(=O)NCCC2 | -0.57 | 2.2
O=C(NCCCN1CCc2ccccc2C1)c1ccc(N2CCc3ccccc32)s1 | . | 0.84
CCCCOC(=O)C1=C(C)NC2=C(C(=O)CC(C)(C)C2)C1c1ccccc1 (centres undefined) | -0.21 | -0.23
O=C1CC(Sc2ccc(Cl)cc2)C(=O)N1Cc1cccnc1 (centres undefined) | -3.5 | .
CCn1c(C)ccc(-c2noc(CCC(=O)Nc3nnc(C)s3)n2)c1=O | -0.74 | 1.1
CCOC(=O)CCCn1c(=O)c2cccn2c2cccnc21 | -1.1 | 0.57
Cc1ccc(-c2nc(SCC(=O)N3CCC(C)CC3)n3[nH]c(=O)cc3n2)cc1 | . | 3.5
Cc1csc2nc(CSc3nc(-c4ccccc4Cl)nc4cc(=O)[nH]n34)cc(=O)n12 | . | 0.44
CC1CCN(c2nn3c(=O)c(C(=O)NCCN4CCCC4)cnc3s2)CC1 | . | 0.37
O=C1COc2ccc(C(=O)c3ccccc3C(=O)O)cc2N1 | -2.3 | 1.5
CCc1nnc(NC(=O)C(=O)c2cc(C)n(-c3ccc(F)cc3)c2C)s1 | -2.8 | 2.3
COc1ccc2c(c1)NC(c1ccc(F)cc1)=NC(c1ccc(F)cc1)=N2 | -1.4 | 0.37
CCCc1nc2nc(C)[nH]n2c(=O)c1N | . | 0.43
CCc1cc(NCc2ccc3c(c2)OCO3)n2ncnc2n1 | 1.2 | 0.84
CC1=C(c2ccc(Cl)cc2)S(=O)(=O)NC1=NCCCOC(C)C | -2 | -1
CCc1ccc(S(=O)(=O)c2nnn3c2nc(NCC2CCCO2)c2sccc23)cc1 (centres undefined) | . | -0.03
CCc1nn(CC(=O)NCCCN(C)C2CCCCC2)c(=O)c2cc3occc3n12 | -1.3 | 2.9
COc1cccc(C(=O)OCC(=O)c2ccc(Br)cc2)c1 | -1.1 | 0.64
Fc1ccc(NCc2nnc3n2CCCCC3)cc1Cl | . | -0.66
COc1ccc(C2C(C(=O)OC3CCCCC3)=C(C)NC3=C2C(=O)CC(C)(C)C3)cc1O (centres undefined) | -1.6 | 2.9
CCC(CC)C(=O)Nc1c2c(nn1-c1ccc(F)cc1)CS(=O)(=O)C2 | . | 0.22
CC(=O)N1N=C(COc2ccc(C)c(C)c2)OC1c1sccc1C (centres undefined) | . | 0.47
CCOC(=O)CSc1nnc(-c2c[nH]c3ccccc23)n1-c1ccc(OCC)cc1 | -0.34 | .
COc1cc(OC)cc(-c2nc(-c3ccc(-c4ccccc4)nc3OC)no2)c1 | -1.3 | -0.95
COc1ccc(OC)c(-c2noc(N(C)c3ccccc3)n2)c1 | . | -0.54
O=C(COCc1cc(-c2ccc3c(c2)OCO3)on1)Nc1ccccc1C(=O)c1ccccc1 | . | 1.2
O=C(Cn1cc2c(n1)CCCC2)Nc1ccc(Cl)cc1 | 0.4 | -0.34
O=C(CCc1nc(CSc2nnc(-c3ccncc3)o2)no1)Nc1ccccc1 | . | 2.2
Cc1ccc(CNC(=O)c2ccc(N3Cc4ccccc4Oc4ncccc43)s2)o1 | . | 0.26
O=C(c1ccc(Br)cc1)C(O)c1c[nH]c2ccccc12 (centres undefined) | 0.22 | 1.2
O=[N+]([O-])c1cc(C(F)(F)F)cc([N+](=O)[O-])c1N/N=C/c1ccccc1O | 0.3 | .

(cont.)
compound | CDC25B-CDK2 inh | HIV TAR-Tat
CCCC(CCC)C(=O)Nc1cc(-c2cn3cccnc3n2)ccc1C | 0.11 | .
O=C1CC(/C=C/c2ccccc2)Cc2nc(N3CCN(Cc4ccc5c(c4)OCO5)CC3)ncc21 (centres undefined) | -2.3 | -0.44
Cc1ccccc1C(=O)NC(NCc1ccco1)(C(F)(F)F)C(F)(F)F | -0.81 | .
N#C/C(N)=C(\C#N)N=Cc1ccccc1[N+](=O)[O-] | -1.5 | .
Cc1cc2c(cc3c(SCc4nc(-c5ccc(Cl)cc5)oc4C)nnc(C)n32)o1 | . | 1.9
Cc1ccc(CSc2nc(-c3cccs3)nc3cc(=O)[nH]n23)cc1 | . | 0.81
Cn1c(=O)c2c(nc(NCCCn3ccnc3)n2Cc2cccc3ccccc23)n(C)c1=O | -2.2 | -0.72
Cc1ccc(C2=NN=C(NC(=O)CSc3nncn3C)SC2)cc1 | -1.6 | .
Cc1ccc(CN2CC(O)=C(c3nc4ccccc4[nH]3)C2=N)cc1 | -1.7 | -0.39
Cc1cc(C)n(C(=O)CCC(=O)O)n1 | -0.8 | 0
CCN1CCC2(CC1)OC(=O)C(C)=C2C(=O)NCc1ccc2c(c1)OCO2 | . | 1.2
COc1ccc(-c2noc(CSc3nc4ccc(C)cc4[nH]3)n2)c(OC)c1 | 0.5 | 0.97
Cc1cccc(OCc2nc(-c3ccccc3)no2)c1 | -0.88 | .
O=C1CC(N2CCC(c3ccncc3)CC2)C(=O)N1c1ccc(F)c(Cl)c1 (centres undefined) | -1.7 | 0.62
Cc1c(Cl)cccc1NC(=O)CCN1C(=O)c2cccc([N+](=O)[O-])c2C1=O | -0.85 | .
O=C(NCCCN1CCCC1=O)c1cnc(N2CCCC2)nc1 | . | 1.5
COc1ccc(OCC(=O)OCc2cc(=O)n3nc(C)sc3n2)cc1 | . | -3
O=C(CN1Cc2ccccc2C1=O)Nc1cc(F)ccc1F | . | 0.12
CCc1nnc(SCc2ccccc2)c2cc3occc3n12 | . | -1.2
